PABP polyA inh: PABP-poly(A) binding inhibition. inhibition, % at 35 µM. P11940. PABP-poly(A) RNA binding, fluorescence polarization. hit rate 1% among 290,000;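 active means 50% or more with normal probe brightness, or confirmed in later tests; inconclusive means above 50% with abnormal brightness, or retests that disagree; inactive means below 50% or failed in later tests; about a fifth of its hits are not listed in these tables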;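 further: calls also rest on retests at 20 µM and on dose response follow-up; controls were probe without protein and protein plus probe with vehicle; some compounds called inactive have numbers as strong as hits; many hits fall short of the cut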
Target sequence (P11940 whole entry, looked up): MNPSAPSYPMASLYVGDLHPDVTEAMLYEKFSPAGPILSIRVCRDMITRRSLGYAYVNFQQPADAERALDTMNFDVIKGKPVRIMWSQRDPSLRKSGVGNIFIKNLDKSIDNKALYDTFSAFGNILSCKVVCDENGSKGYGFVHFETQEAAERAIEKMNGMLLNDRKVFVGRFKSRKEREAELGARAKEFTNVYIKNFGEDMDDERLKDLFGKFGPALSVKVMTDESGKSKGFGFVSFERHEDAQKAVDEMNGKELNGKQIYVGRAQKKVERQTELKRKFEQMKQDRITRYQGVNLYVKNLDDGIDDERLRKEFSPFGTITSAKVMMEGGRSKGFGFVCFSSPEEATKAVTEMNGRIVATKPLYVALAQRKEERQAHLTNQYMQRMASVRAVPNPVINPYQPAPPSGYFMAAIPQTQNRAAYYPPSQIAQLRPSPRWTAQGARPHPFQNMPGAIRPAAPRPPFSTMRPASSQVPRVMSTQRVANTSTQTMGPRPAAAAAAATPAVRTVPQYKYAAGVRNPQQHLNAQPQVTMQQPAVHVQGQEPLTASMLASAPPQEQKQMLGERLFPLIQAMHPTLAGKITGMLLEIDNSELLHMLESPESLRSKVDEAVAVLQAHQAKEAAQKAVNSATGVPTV
HIV Env fusion: inhibitors of HIV Env-mediated cell fusion; HeLa-JRFL Env/CEM21 cell fusion, luciferase; inhibition, % at 12.3 µM; hit rate 1.1% among 360,000; AID 651610;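 active means mean replicate inhibition score of at least 50 and every replicate individually at or above 50; inconclusive means only one of the two criteria met; inactive means mean below 50 and not all replicates reaching 50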;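 further: 0% = plate neutral controls and 100% = maraviroc near 300 nM; one replicate is shown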
Rce1 inhib: inhibitors of yeast Ras-converting enzyme. yeast membranes, quenched prenylated peptide cleavage fluorescence. calls only. hit rate 0.27% among 290,000. AID 2563;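 active means fall in fluorescence gain of 50% or more versus controls, with final raw signal at or below 3038400; inconclusive means same 50% fall but final raw signal above 3038400; inactive means fall in fluorescence gain under 50%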;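 further: plate controls were neutral control wells for no effect and wells lacking membranes for full effect; tested at 10 µM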
Target sequence (Q03530 whole entry, looked up): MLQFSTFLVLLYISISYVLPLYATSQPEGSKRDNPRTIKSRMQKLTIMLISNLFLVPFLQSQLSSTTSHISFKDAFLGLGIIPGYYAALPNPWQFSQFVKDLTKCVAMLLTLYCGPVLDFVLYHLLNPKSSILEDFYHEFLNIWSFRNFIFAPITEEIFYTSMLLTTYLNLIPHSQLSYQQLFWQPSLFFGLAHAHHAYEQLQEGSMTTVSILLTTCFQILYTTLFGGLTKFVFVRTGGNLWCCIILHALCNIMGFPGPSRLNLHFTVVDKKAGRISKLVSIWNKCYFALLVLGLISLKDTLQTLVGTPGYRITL
eIF4H inh: inhibitors of RNA binding by human eIF4H | Q15056 | eIF4H fluorescence polarization binding assay | inhibition, % at 35 µM | hit rate 0.94% among 290,000 | AID 2012;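 active means 50% or more with normal probe brightness, or confirmed in later tests; inconclusive means above 50% with abnormal brightness, or retests that disagree; inactive means below 50% or failed in later tests; about a fifth of its hits are not listed in these tables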;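 further: calls also rest on retests at 20 µM and on dose response follow-up; 0% = protein and probe with vehicle and 100% = probe without protein; strong numbers were not always called active; many hits fall short of the cut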
MT1-MMP act inh: inhibitors of human MT1-MMP activation. HT1080 RFP-PRO-GFP cells, GFP/RFP ratio fluorescence, overnight; percent of plate control window, DMSO zero. hit rate 0.061% among 360,000. AID 651647. GFP/RFP ratio change, % at 20 µM;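 active means GFP/RFP ratio change of at least 30% with cell ATP level not reduced by more than half and red fluorescence within 50% of control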; further: strong numbers were not always called active
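Assay system: HT1080 RFP-PRO-GFP cells. Benchmarks: DMSO vehicle wells and RFP-L50D-GFP reporter cell wells. Times: overnight cell settling, then overnight compound exposure, 37 °C, 5% CO2. Compound: 20 µM single dose, 1% DMSO. Read-out basis: GFP/RFP fluorescence ratio.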
CSC inhib: cancer stem cell inhibition | cancer stem cell-like cells viability, luminescence | inhibition, % at 7.5 µM | hit rate 1.1% among 300,000;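 active means mean at 75% or more and at least half the replicates too; inconclusive means mean and replicates disagree; tested in HMLE shEcad cells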;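 further: 0% = median of negative and 100% = median of positive control wells; the first replicate is given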
Yeast UUG start: alters start codon recognition fidelity in yeast | hit rate 0.13% among 350,000 | AID 602363 | activity score, % at 18.7 µM | S. cerevisiae UUG-firefly luciferase reporter, luminescence/redox ratio;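 active means replicate mean at a twofold rise or more, about +100% in these data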;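 further: firefly luciferase made from a UUG start codon reports start codon fidelity; reporter light over untreated wells divided by growth signal over untreated wells; some hits fall short of that in this replicate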
eIF4H inh retest: also measured in eIF4H inh; calls as there; inhibition, %; compound at 20 µM; confirmation average;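 mean of two retest wells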
PABP polyA inh retest: also measured in PABP polyA inh; calls as there; inhibition, %; compound at 20 µM; confirmation repeats;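 mean of two retest wells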
MT1-MMP act inh RFP: further read-out of MT1-MMP act inh, marked with its call; RFP signal change, %; measured here: RFP expression control read;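 0 = vehicle wells; hits needed this value within 50% of zero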
* marks the source's active call; other numbers are inactive results; i = inactive; u = inconclusive; x = not tested or not shown. A portion of the library. The share of hits here may be higher or lower than overall.

SMILES	PABP polyA inh	HIV Env fusion	Rce1 inhib	eIF4H inh	MT1-MMP act inh	MT1-MMP act inh RFP	CSC inhib	Yeast UUG start	others
CC(=O)Nc1ccc(N=Cc2c(O)n(Cc3ccco3)c(=O)[nH]c2=O)cc1	8	14	i	68	-5	5	-17	-10	eIF4H inh retest=41;PABP polyA inh retest=34
COC(=O)C1=C(c2ccc(S(C)(=O)=O)cc2)C[C@@H]2CC[C@H]1N2C(=O)NCCCOC(C)C	x	-15	i	x	2	2	-18	1
Fc1ccc2c(c1)nnn2C1CCN(Cc2nnnn2CCc2ccccc2)CC1	19	-9	i	0	2	-1	-15	-3
O=C(Nc1cccc(OC(=O)N2CCCCC2)c1)N1CCOCC1	0	14	i	12	2	-4	-4	-2
CCCCNS(=O)(=O)c1ccc(OCC(=O)N2CCN(Cc3ccc4c(c3)OCO4)CC2)cc1	-9	17	i	-12	5	-28	12	-4
COc1ccc2c(c1OC)C(=O)OC2c1c(O)n(C2CCCCC2)c(=O)[nH]c1=O (stereo not given)	8	x	i	-6	-8	-2	-7	x
CCC[C@H](N[C@@H](CCC)[C@H](O)c1ccccc1)[C@H](O)c1ccccc1	x	-24	i	x	-1	0	x	-8
CN1CCC2(CC1)NC(=O)C1=C(CN(C)CC1)N2	x	x	i	x	0	1	x	-22
COC(=O)C1=C(c2ccc(OCc3ccccc3)cc2)C[C@@H]2CC[C@H]1N2C(=O)NCc1ccc([N+](=O)[O-])cc1	x	-69	x	x	9	-13	21	-18
CCN1C(=O)C(=Cc2cc(C)n(C3CC3)c2C)C(=O)N(CC)C1=S	34	-4	i	14	7	34	-1	-14
COC(=O)C1=C(c2ccc(F)cc2OCc2ccccc2)C[C@@H]2CC[C@H]1N2C(=O)NCc1ccco1	x	-17	x	x	-8	-8	11	-16
Cc1cc(OCCN2CC2)c2ccccc2n1	44	x	i	16	x	x	8	x
CNC(=S)N1CCN(CCN=Cc2c(O)n(-c3ccc(C)cc3)c(=S)[nH]c2=O)CC1	0	-3	i	-11	-2	1	x	-19
CC(C)CCOP(N)(=O)Oc1ccccc1Cl (stereo not given)	2	-14	i	10	9	5	-8	-9
Clc1cccc(C2NCCc3[nH]cnc32)c1 (stereo not given)	11	x	i	-13	2	6	-3	-12
CCOc1cc(CNCCc2c[nH]c3ccccc23)cc(Cl)c1OCC	-5	68*	i	-19	4	3	33	x
CCN(CC)C(=O)c1ccc(NC(=O)c2ccc(-c3nn(C)c(=O)c4ccccc34)cc2)cc1	2	20	i	7	-11	-13	-1	x
CCOC(=O)c1c(C)n(C(C)C)c2ccc(OC)cc12	-6	0	i	0	2	1	0	-2
CCN(CC)c1ccc(/C=C/[N+](=O)[O-])cc1	49	-52	i	u	-11	4	69	-19
c1ccc(CCN2CCC(N3CCN(c4ccccc4)CC3)CC2)cc1	7	0	i	-2	12	5	43	-5
CNC(=O)Oc1ccc(N(C)C)cc1C(C)C	4	15	i	-3	-2	1	1	-21
N#Cc1ccccc1Cn1cc(C(=O)c2ccco2)c2ccccc21	6	-23	i	-5	4	-3	-7	-7
Cc1cc(OCC(=O)NCc2cccnc2)c2c3c(c(=O)oc2c1)CCCC3	-1	5	i	-9	1	-2	-8	-9
CCOc1ccc(-n2c(CC)nc3ccccc3c2=O)cc1	-7	4	i	-16	3	4	-1	-22
COc1ccc(Oc2cc(NC(=O)c3nn(C)cc3[N+](=O)[O-])cc([N+](=O)[O-])c2)cc1	-3	x	i	-3	-9	-30	x	3
CN(C)c1ccc(/C=C2\CC3C4CC=C5CC(O)CCC5(C)C4CCC3(C)C2=O)cc1 (stereo not given)	53*	2	i	3.9*	-5	2	-2	-4	eIF4H inh retest=87*;PABP polyA inh retest=94*
CN1CCCN(C(=O)COc2ccc(F)cc2Cl)CC1	-6	9	i	-8	-1	1	8	-6
COc1ccc(-n2nnnc2C(C2CC2)N2CCC3(CC2)C(=O)NCN3c2ccccc2)cc1 (stereo not given)	x	9	x	x	0	0	x	-20
CC[C@H]1CN2CCC1C[C@@H]2[C@H](O)c1ccnc2ccc(OC)cc12 (stereo not given in full)	x	-18	x	x	-2	0	x	-1
COc1cccc(CN2CCN(Cc3cccc(F)c3)CC2)c1	1	1	i	5	3	-2	16	3
Cc1ccccc1CN1CCN(c2ccc(Cl)cc2)CC1	-2	7	i	0	1	-1	9	x
CCOC(=O)[C@]12Cc3cc(OC)ccc3[C@H]1N(Cc1ccccc1)C(=O)c1ccccc12	x	22	x	x	-6	-8	x	11
CSCCC(N=Cc1c(O)n(-c2ccc(F)cc2)c(=O)[nH]c1=O)C(=O)OC(C)(C)C (stereo not given)	-2	6	i	-5	0	4	-9	x
FC(F)(F)c1ccccc1N1CC1c1ccncc1 (stereo not given)	-6	-3	i	-2	0	-4	x	-10
Cc1ccc(S(=O)(=O)N2CCCCC2)cc1NC(=O)CN1CC=C(c2ccccc2)CC1	1	u	i	2	-9	-7	22	-3
CNCCc1c(C)n[nH]c1C	14	x	i	1	0	4	x	-14
CCN(CC)C(=O)c1ccc(NC(=O)c2sccc2-c2ccccc2)cc1	-3	x	i	-6	0	-1	12	-24
CC(C)CCn1c(N)c(C(=O)OCC2CCCO2)c2nc3ccccc3nc21 (stereo not given)	-4	x	i	-9	-32	-18	8	-15
O=c1c2ccccc2nc(Cc2cccc([N+](=O)[O-])c2)n1-c1ccc(O)cc1	-6	-29	i	-11	1	0	-8	-2
CCOC(=O)C(O)(c1cn(C)c2ccccc12)C(F)(F)F (stereo not given)	-8	x	i	-1	-1	7	5	-12

Pulled by structure from the entries so far:
SMILES	PABP polyA inh	HIV Env fusion	Rce1 inhib	eIF4H inh	MT1-MMP act inh	MT1-MMP act inh RFP	CSC inhib	Yeast UUG start	others
CC(C)CCn1c(N)c(C(=O)OCC2CCCO2)c2nc3ccccc3nc21 (stereo not given)	-4	x	i	-9	-32	-18	8	-15
CNCCc1c(C)n[nH]c1C	14	x	i	1	0	4	x	-14
CCOC(=O)C(O)(c1cn(C)c2ccccc12)C(F)(F)F (stereo not given)	-8	x	i	-1	-1	7	5	-12

Further records:
SMILES	PABP polyA inh	HIV Env fusion	Rce1 inhib	eIF4H inh	MT1-MMP act inh	MT1-MMP act inh RFP	CSC inhib	Yeast UUG start	others
COc1cc2c3cc1Oc1c(OC)c(OC)cc4c1[C@H](Cc1ccc(cc1)Oc1cc(ccc1O)C[C@H]3N(C)CC2)N(C)CC4	x	-9	x	x	0	-3	-4	-3
Cc1cccc(C)c1-n1nnnc1C(c1cccc2ccccc12)N1CCC(n2c(=O)[nH]c3ccccc32)CC1 (stereo not given)	x	74*	x	x	-12	-21	x	-14
CC(C)(C)[C@]1(O)C[C@@H]2OC(=O)C[C@@]23C(=O)O[C@@H]2OC(=O)[C@H](O)[C@]213	4	-14	i	-7	3	2	-13	-15
COc1ccc(C(C)=O)cc1Cc1c(O)[nH]c(=S)[nH]c1=O	6	-5	i	-1	0	4	-8	-2
C[C@]12CCC3C(CC[C@H]4C[C@H](O)CC[C@]34C)C1C[C@H](O)[C@H]2O (stereo not given in full)	x	-6	x	x	-3	-1	x	-19
CCOc1cc(C=C2C(=O)NC(=S)NC2=O)ccc1O	x	-15	x	x	-1	5	x	-27
O=c1[nH]c(=O)n(Cc2ccccc2)c(O)c1C=NCCN1CCOCC1	-8	-18	i	-5	4	3	x	-13
CN1CCN(S(=O)(=O)c2cnc(Cl)c(Br)c2)CC1	-5	-9	i	-2	4	3	-2	x
O=[N+]([O-])c1ccc(N2CCNCC2)c(Cl)c1	-3	-7	i	-3	-6	-5	-5	x
CCC(c1nnnn1C1CCCC1)N1CCC2(CC1)C(=O)NCN2c1ccccc1 (stereo not given)	x	24	x	x	0	-1	x	-10
C=CCn1c(=O)c(C=Nc2cccc([N+](=O)[O-])c2)c(O)n(CCCC)c1=O	u	-35	i	u	-176	21	2	-12
CCc1ccc(CNCCc2c[nH]c3ccccc23)cc1	5	78*	i	3	3	1	18	-26
COc1ccc(N2C(=O)NC(=O)/C(=C\c3cn(C)c4ccccc34)C2=O)cc1	u	x	i	u	-10	9	-15	-3

15 compounds already listed, ordered by formula weight, low to high:
SMILES	PABP polyA inh	HIV Env fusion	Rce1 inhib	eIF4H inh	MT1-MMP act inh	MT1-MMP act inh RFP	CSC inhib	Yeast UUG start	others
O=[N+]([O-])c1ccc(N2CCNCC2)c(Cl)c1	-3	-7	i	-3	-6	-5	-5	x
CC(C)CCOP(N)(=O)Oc1ccccc1Cl (stereo not given)	2	-14	i	10	9	5	-8	-9
CCOc1ccc(-n2c(CC)nc3ccccc3c2=O)cc1	-7	4	i	-16	3	4	-1	-22
Cc1ccccc1CN1CCN(c2ccc(Cl)cc2)CC1	-2	7	i	0	1	-1	9	x
CC[C@H]1CN2CCC1C[C@@H]2[C@H](O)c1ccnc2ccc(OC)cc12 (stereo not given in full)	x	-18	x	x	-2	0	x	-1
CN1CCN(S(=O)(=O)c2cnc(Cl)c(Br)c2)CC1	-5	-9	i	-2	4	3	-2	x
O=c1[nH]c(=O)n(Cc2ccccc2)c(O)c1C=NCCN1CCOCC1	-8	-18	i	-5	4	3	x	-13
CC(=O)Nc1ccc(N=Cc2c(O)n(Cc3ccco3)c(=O)[nH]c2=O)cc1	8	14	i	68	-5	5	-17	-10	eIF4H inh retest=41;PABP polyA inh retest=34
Cc1cc(OCC(=O)NCc2cccnc2)c2c3c(c(=O)oc2c1)CCCC3	-1	5	i	-9	1	-2	-8	-9
CC(C)CCn1c(N)c(C(=O)OCC2CCCO2)c2nc3ccccc3nc21 (stereo not given)	-4	x	i	-9	-32	-18	8	-15
COc1ccc2c(c1OC)C(=O)OC2c1c(O)n(C2CCCCC2)c(=O)[nH]c1=O (stereo not given)	8	x	i	-6	-8	-2	-7	x
CCC(c1nnnn1C1CCCC1)N1CCC2(CC1)C(=O)NCN2c1ccccc1 (stereo not given)	x	24	x	x	0	-1	x	-10
CCOC(=O)[C@]12Cc3cc(OC)ccc3[C@H]1N(Cc1ccccc1)C(=O)c1ccccc12	x	22	x	x	-6	-8	x	11
CCCCNS(=O)(=O)c1ccc(OCC(=O)N2CCN(Cc3ccc4c(c3)OCO4)CC2)cc1	-9	17	i	-12	5	-28	12	-4
Cc1cccc(C)c1-n1nnnc1C(c1cccc2ccccc12)N1CCC(n2c(=O)[nH]c3ccccc32)CC1 (stereo not given)	x	74*	x	x	-12	-21	x	-14

Screening data (PubChem)
